Assay outcomes deposited in PubChem BioAssay by National Center for Advancing Translational Sciences (NCATS).
VDR inhibitor: vitamin D3 receptor (human) inhibition; Potency, µM, inactives show max response, negative = inhibition, hits mostly inhibitors; VDR-SRC2-3 peptide fluorescence polarization, 2 h; actives 0.93% (n = 400,000); active means well fitted inhibition curve with a large enough effect; inconclusive means small, poorly fitted or top-dose-only effect, or another doubt; inactive means no such curve, though single readings can be large or run the other way; further: series mostly up to about 120 µM
Target sequence (P11473 whole entry, looked up): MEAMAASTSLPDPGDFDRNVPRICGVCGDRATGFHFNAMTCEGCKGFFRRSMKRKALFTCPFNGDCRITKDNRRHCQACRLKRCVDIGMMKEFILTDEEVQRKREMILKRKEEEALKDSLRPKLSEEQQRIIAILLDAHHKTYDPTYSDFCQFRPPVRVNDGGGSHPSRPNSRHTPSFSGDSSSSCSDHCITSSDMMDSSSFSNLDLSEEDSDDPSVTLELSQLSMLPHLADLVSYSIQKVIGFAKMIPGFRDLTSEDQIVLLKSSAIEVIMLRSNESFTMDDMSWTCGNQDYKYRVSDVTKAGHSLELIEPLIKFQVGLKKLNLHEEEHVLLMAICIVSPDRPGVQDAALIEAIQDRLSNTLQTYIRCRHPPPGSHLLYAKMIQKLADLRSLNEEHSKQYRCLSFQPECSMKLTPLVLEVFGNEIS
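Measured by FP: displacement of SRC2-3 coactivator peptide from VDR by library compounds, following a two-hour ambient incubation.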
An asterisk follows results filed as active; ? = inconclusive; & = joins results of further samples. On the % scale 0 is the no-effect control and ±100 the full control effect; potency means the concentration at half of the fitted maximal effect. The list is partial. The share of hits here may be higher or lower than overall.

VDR inhibitor	molecule
-18.5%	COC(=O)c1ccc(C23CC4(C2)[C@H](CN(Cc2ccc(-c5ccccc5)cc2)[C@@H]4c2ccccc2)C3c2ccccc2)cc1 (some centres not stated)
-8.1%	COC(=O)[C@]1(Cc2ccccc2)N[C@H](CN(C)C(=O)c2ccc(C)cc2)[C@@H]2C(=O)N(C)C(=O)[C@@H]21
16.4%	COc1ccc(S(=O)(=O)N(CCCN2CCOCC2)Cc2cccc(OC)c2OC)cc1
-5.3%	Nc1ccccc1Sc1ccccc1[N+](=O)[O-]
2.2%	COc1ccc2oc(C(=O)N3CCN(c4ncccn4)CC3)c(C)c2c1
1.5%	Clc1ccccc1-c1nc2ccccc2c2nc3ccccc3n12
3.3%	O=C(NC(C(=O)c1ccccc1)N1CCCCC1)c1ccccc1 (configuration not stated)
14.8%	Cn1c(-c2ccc3c(c2)OCO3)cnc1NCc1ccccc1
-23.2%	Cc1ccc(NC(=O)CSc2ccc3nnc(CCNC(=O)c4ccccc4)n3n2)c(C)c1
-5.8%	CC(=O)NCCC(=O)N1CCc2c([nH]c3ccccc23)C1c1cccc(Cl)c1 (configuration not stated)
2.0%	Cc1ccc(NC(=O)CCN2CCN(C/C=C/c3ccccc3)CC2)cc1
-15.7%	CCCOc1ccc(C(=O)NCC(c2ccco2)N(C)C)cc1 (configuration not stated)
-11.4%	CC(C)C(C)NC(=O)COc1ccc(-c2ccccc2)cc1 (configuration not stated)
9.9%	O=C(/C=C/c1c(Cl)cccc1Cl)N1CCN(c2ncccn2)CC1
-1.3%	O=C1CCCCC1Sc1nnc(Cc2cccs2)n1CCc1ccccc1 (configuration not stated)
?	c1ccc(C2CSc3ccccc3N2)cc1 (configuration not stated)
-11.8%	Cc1cc(C)nc(NC2=NCC(=O)N2c2ccc(F)c(Cl)c2)n1
-1.3%	CCOC(=O)C1=CC[C@H]2c3c(c4ccccc4n3C)C(=O)C1N2C(=O)OC(C)(C)C
-0.7%	Fc1ccc2nc(Nc3nc4cc5c(cc4s3)OCO5)sc2c1
1.8%	CCCCC/C=C\C=C\[C@H](O)CCCCCCCC(=O)O
-21.4%	Cc1cnc(-c2nnc(N(C)C(=O)C3CCOC3)s2)cn1 (configuration not stated)
-12.0%	O=C(c1ccc(S(=O)(=O)N2CCCCCC2)cc1)N1CCCC(C(F)(F)F)C1 (configuration not stated)
20.6%	O=S(=O)([O-])C/C(=C\c1ccc(Cl)cc1)c1cc[n+](CCO)cc1
11.8%	Cc1ccc(N2CC(NC(=O)c3cccs3)CC2=O)cc1 (configuration not stated)
20.8%	CCc1ccccc1NC(=S)N(CCCN(C)C)Cc1cc2cc3c(cc2[nH]c1=O)OCO3
-10.0%	Cc1ccc(NC(=O)C2CCN(c3cc(C)nc4c(-c5ccc(Cl)cc5)c(C)nn34)CC2)c(C)c1
-6.0%	Cn1c(=S)[nH]c2c(c1=O)C(C)(C)Cc1ccccc1-2
13.4%	CC(C)N=C(N)/N=C(\N)Nc1ccc(Cl)cc1
-3.3%	O=C(CCc1ccccc1)NC1C2CC3CC(C2)CC1C3 (configuration not stated)
-5.8%	COc1ccc(-n2nc3c(c2NC(=O)c2ccc4c(c2)OCO4)CS(=O)(=O)C3)cc1
-3.8%	CN1C(=O)N(C)C2(c3ccccc3)Nn3c(s/c(=C/c4ccco4)c3=O)=NC12c1ccccc1 (configuration not stated)
19.9%	COc1ccc2cc(C(=O)N3CCN(c4ccccc4F)CC3)[nH]c2c1
-7.7%	COc1ccc(NC(=O)c2cc3c(s2)CCC(C)C3)cc1S(=O)(=O)N1CCOCC1 (configuration not stated)
-7.3%	CCCOC(=O)Nc1ccc(S(=O)(=O)Nc2ncccn2)cc1
5.5%	O=C(NCCc1cnccn1)C1CCC(=O)N(Cc2ccc(Cl)cc2)C1 (configuration not stated)
14.0%	CC(C)(C)NC(=S)N1CCC(C(=O)c2ccc(F)cc2)CC1
?	O=c1c2nncn2c2cccnc2n1CCNc1ncc(C(F)(F)F)cc1Cl
5.9%	CCSc1nnc(NC(=O)c2cccnc2)s1
-7.3%	CC(=O)NC(=S)Nc1ccc(NC(=O)c2cccs2)cc1
10.1%	COc1ccc(-c2nc(SCC(=O)N3CCOCC3)n[nH]2)cc1
13.0%	COc1ccc(S(=O)(=O)N2CCCC2CNC(=O)C(=O)NCc2ccccc2)cc1 (configuration not stated)
-3.0%	O=S(=O)(Nc1cccc(-n2cnnn2)c1)c1cc(Br)ccc1Br
-13.2%	COc1ccc(NC(=O)CN2CC(C)OC(C)C2)cc1Cl (configuration not stated)
-13.5%	CN(C)C(=O)C[n+]1ccc(C(N)=O)cc1
-1.9%	Cc1cc(=O)n2[nH]c(N3C(=O)CCC3=O)nc2n1

Five compounds picked at random from those above:
VDR inhibitor	molecule
-13.5%	CN(C)C(=O)C[n+]1ccc(C(N)=O)cc1
5.5%	O=C(NCCc1cnccn1)C1CCC(=O)N(Cc2ccc(Cl)cc2)C1 (configuration not stated)
-7.3%	CCCOC(=O)Nc1ccc(S(=O)(=O)Nc2ncccn2)cc1
-7.7%	COc1ccc(NC(=O)c2cc3c(s2)CCC(C)C3)cc1S(=O)(=O)N1CCOCC1 (configuration not stated)
-13.2%	COc1ccc(NC(=O)CN2CC(C)OC(C)C2)cc1Cl (configuration not stated)

The listing continues:
VDR inhibitor	molecule
-7.5%	O=C(Oc1ccc2c(-c3ccccc3)cc(=O)oc2c1)c1cccs1
6.5%	CCOC(=O)C1CCCN(Cc2c(C(=O)N3CCOCC3)nc3ccccn23)C1 (configuration not stated)
8.4%	c1ccc(COC2CCCN(Cc3nc(-c4cnccn4)no3)C2)nc1 (configuration not stated)
2.4%	COc1ccc(Cn2c(=O)c3oc4ccccc4c3n(Cc3cccc(F)c3)c2=O)cc1
2.6%	COc1ccc(CN2CCN(c3ccc(F)cc3)CC2)c(OC)c1OC
5.9%	CCn1c(=O)n(CC(=O)Nc2cc(OC)c(OC)c(OC)c2)c(=O)c2ccccc21
-7.2%	COc1ccc(NC(=O)CCCN2C(=O)C3C4C=CC(C4)C3C2=O)c(OC)c1 (configuration not stated)
-3.7%	COC(=O)Nc1ccc(S(=O)(=O)n2cnc3ccccc32)cc1
-13.6%	O=C(O)c1cccc2c3c([nH]c12)CCCC3
0.8%	COc1cccc(N2C(=NC(=O)C3CCCCC3)SC3CS(=O)(=O)CC32)c1 (configuration not stated)
-6.4%	CCCc1cc(=O)[nH]c(SCC(=O)c2[nH]c(C)c(C(=O)OCC)c2C)n1
0.0%	COc1ccc(NC(=O)COC(=O)c2ccc(N3CCCC3=O)cc2)cc1OC
-12.6%	CCC1=C(OC(=O)N(CC)CC)N2C(=O)OC(=NCCOC)[C@]2(Cc2ccccc2)[C@H]2C1=CC[C@H]1C(=O)N(CC)C(=O)[C@H]12
-0.7%	Cc1cc(C(=O)OC(C)C(=O)Nc2cccc(S(=O)(=O)N3CCOCC3)c2)c(C)o1 (configuration not stated)
-13.4%	O=C(N/N=C/c1ccsc1)c1ccc2ccccc2n1
-7.8%	CC(NC(=O)c1ccco1)C(=O)OC(C)C(=O)NCc1ccccc1 (configuration not stated)
-7.1%	O=c1oc2cc(O)ccc2cc1S(=O)(=O)c1ccccc1
-5.6%	COc1ccc(C(=O)NCC(c2ccccc2)N2CCCC2)cc1S(=O)(=O)N1CCOCC1 (configuration not stated)
2.2%	Cc1cc(OCCCC(=O)N2CCCCC2)cc(C)c1Cl
-5.5%	Cc1ccc(C(=O)NCCNS(=O)(=O)c2ccccc2[N+](=O)[O-])cc1
4.4%	O=C(Nc1cccc(-c2cn3ccccc3n2)c1)c1cccc(Cl)c1
8.8%	CC(=O)Nc1ccc(S(=O)(=O)N2CCCC2)cc1
8.5%	O=C(NC(=S)Nc1ccccc1O)c1ccc(Cl)cc1Cl
-6.2%	Cc1ccc(C23CC4CC(CC(C(=O)NC(C)C)(C4)C2)C3)cc1
-10.8%	COc1ccc(C(=O)OCC(=O)NC2CC2)cc1S(=O)(=O)N(C)Cc1ccccc1
-8.6%	COCCNC(=O)/C(C#N)=C/C=C/c1ccccc1
-11.3%	Cc1c(/C=N\NC(=O)c2cccc(F)c2)cnn1C
-16.7%	COc1ccc(-n2c(N)c(-c3nc4ccccc4n3C)sc2=S)cc1
-5.0%	COc1cccc(C(=O)Nc2ccc(S(=O)(=O)NCc3ccco3)cc2)c1
-16.6%	CCOC(=O)c1c(CN2CCOCC2)oc2ccc(OC)cc12
4.8%	O=C(Cc1ccccc1)CC1(O)C(=O)Nc2ccccc21 (configuration not stated)
0.1%	CCOC(=O)C1CCN(C(=O)C(=O)c2cn(CC(=O)N3CCCCCC3)c3ccccc23)CC1
8.5%	Cc1nc2nc(N)nc(OCc3ccccc3)c2nc1C
10.3%	O=C(NCCN1CCOCC1)c1ccc(CSCc2cccc(Cl)c2)o1
12.7%	Cc1nc(-c2ccc(S(=O)(=O)Nc3ccc(OC(F)(F)F)cc3)cc2)co1
9.5%	CCc1ccc(NC(=O)CN(Cc2ccccc2)S(=O)(=O)c2ccc3nc(C)sc3c2)cc1
-16.0%	NC(=O)CC(NC(=O)Cc1cccc2ccccc12)c1ccc(NCCc2ccc(F)cc2)c([N+](=O)[O-])c1 (configuration not stated)
-4.9%	COC(=O)C1CN(S(=O)(=O)c2ccccc2)CCN1S(=O)(=O)c1ccccc1 (configuration not stated)
-11.1%	CCOc1ccccc1/C=N/Nc1nc2ccccc2o1
-17.9%	COC(=O)C1CCN(S(=O)(=O)c2c(C)n(C)c(=O)n(C)c2=O)CC1
-25.8%	CCCc1c(C)nc2c(OC)cccc2c1SCC(=O)O
11.1%	Cc1ccc(CNC(=O)c2c(-c3ccccc3Cl)noc2C)cc1
1.4%	CCCN(C(=O)c1ccc(-n2cncn2)c([N+](=O)[O-])c1)C1CCS(=O)(=O)C1 (configuration not stated)
4.4%	CCCN1CCC(NCC(C)c2ccccc2)CC1 (configuration not stated)
3.3%	CCn1nc(C)c2c(-c3ccccc3)cc(=O)n(C(C)C(=O)NCCc3ccc(OC)c(OC)c3)c21 (configuration not stated)
-28.2%	O=C(COc1ccccc1)Nc1c2c(nn1-c1ccccc1)CS(=O)(=O)C2
-2.6%	CCOCCCNC(=O)/C(C#N)=C/c1cc(OC)c(O)c([N+](=O)[O-])c1
13.2%	Cc1ccc(S(=O)(=O)CCC(=O)Nc2ccc(OC(F)(F)F)cc2)cc1
-8.8%	COc1ccc(C)cc1S(=O)(=O)N(C)CC(=O)N1CCCCC1
-6.2%	Cc1nc(NC(=O)c2ccc3c(c2)OCO3)ccc1Br
3.7%	CCOc1ccccc1C1NC(=O)NC(C)=C1C(=O)OC1CCCCC1 (configuration not stated)
-2.4%	Cc1cc(C)cc(OCC(=O)NC(Cc2c[nH]c3ccccc23)C(=O)O)c1 (configuration not stated)
-4.5%	COc1ccc(/C(N)=N/OC(=O)CSc2ccccc2)cc1OC
8.9%	NC(=O)COC(=O)CN1C(=O)C2CCCCC2C1=O (configuration not stated)
-10.4%	O=C(Cc1ccccc1)NCC(=O)OCC(=O)c1cccc([N+](=O)[O-])c1
-9.0%&11.9%	CCN(Cc1ccccc1)C(=O)C1CCN(c2ncnc3c2nc2n3CCCCC2)CC1
18.2%	Cc1ccc(C)c(N2C(=O)N(Cc3c(F)cccc3Cl)c3ccccc3S2(=O)=O)c1
10.2%	O=C(c1cc(-c2ccc(Cl)cc2)n[nH]1)N1CCc2ccccc2C1
-6.4%	CC1CCc2nc3ccccc3c(C(=O)OCC(=O)N(C)C3CCS(=O)(=O)C3)c2C1 (configuration not stated)
15.9%	Cc1ccc(C(=O)CSc2nc3ccccc3o2)cc1

Additional structures
VDR inhibitor	molecule
3.0%	COc1cccc(COC(=O)c2ccc3c(=O)n4c(nc3c2)CCC4)c1OC
12.6%	CCC(=O)N1CCc2cc(Br)cc(S(=O)(=O)NCCN3CCCCC3C)c21 (configuration not stated)
3.5%	N#Cc1cc(O)c(-n2nnc3ccccc32)cc1C#N
-3.5%	CCOC(=O)N1CCN(C(=O)c2ccc3c(=O)n(CCc4ccccc4)c(=S)[nH]c3c2)CC1
-5.0%	CCN1C(=O)c2cccc3c(NC(=O)c4cccc(N5C(=O)CCC5=O)c4)ccc1c23
1.1%	CCN(CC)S(=O)(=O)c1ccc(NN=C2CCN(C(C)C)CC2)c([N+](=O)[O-])c1
13.1%	CC(=O)OC(C)CS(=O)(=O)c1ccccc1 (configuration not stated)
-1.3%	CCOc1ccc2cc(C#N)c(SCC(=O)N3CCC(C)CC3)nc2c1
8.2%	O=c1c(Cc2ccccc2O)c(O)nc2n1CCCS2
-9.9%	Cc1nc2c(C#N)c(C)[nH]n2c(=O)c1Cc1ccccc1
-22.0%	COc1cc(/C=C/C(=O)OCC(=O)NCCc2ccccc2)ccc1OC(F)F
2.9%	Cc1nc(SCC(=O)N2CC(=O)Nc3ccccc32)nc(C)c1C

5 structures from above, sorted by molar mass, highest first:
VDR inhibitor	molecule
12.6%	CCC(=O)N1CCc2cc(Br)cc(S(=O)(=O)NCCN3CCCCC3C)c21 (configuration not stated)
-5.0%	CCN1C(=O)c2cccc3c(NC(=O)c4cccc(N5C(=O)CCC5=O)c4)ccc1c23
8.2%	O=c1c(Cc2ccccc2O)c(O)nc2n1CCCS2
-9.9%	Cc1nc2c(C#N)c(C)[nH]n2c(=O)c1Cc1ccccc1
13.1%	CC(=O)OC(C)CS(=O)(=O)c1ccccc1 (configuration not stated)
